D2 potentiator – human D2 receptor positive allosteric modulation; P14416; DiscoveRx D2 beta-arrestin cells, luminescence, 90 min; 100% = 57 uM dopamine signal; potentiation, % (test concentration not listed); 360,000 tested, 0.23% active; active = potentiation of 50% or more; inconclusive = 30% to 50%; inactive = 30% or less;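 also: compound concentration not given in the record; tested on top of an EC20 dose of dopamine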
Target sequence (P14416 whole entry, looked up): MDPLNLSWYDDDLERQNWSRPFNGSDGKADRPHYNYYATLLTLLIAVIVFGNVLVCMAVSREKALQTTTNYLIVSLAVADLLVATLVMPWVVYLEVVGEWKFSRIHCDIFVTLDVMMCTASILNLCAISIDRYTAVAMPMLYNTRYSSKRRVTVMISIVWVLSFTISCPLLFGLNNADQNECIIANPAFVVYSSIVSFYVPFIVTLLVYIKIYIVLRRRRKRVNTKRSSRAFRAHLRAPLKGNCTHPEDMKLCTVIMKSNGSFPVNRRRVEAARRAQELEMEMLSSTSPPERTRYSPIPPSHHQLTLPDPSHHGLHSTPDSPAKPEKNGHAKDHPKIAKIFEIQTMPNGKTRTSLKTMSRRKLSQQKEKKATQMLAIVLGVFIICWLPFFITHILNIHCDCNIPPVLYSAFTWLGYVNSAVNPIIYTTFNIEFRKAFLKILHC
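PathHunter beta-arrestin assay in DiscoveRx D2 cells. Compounds were added with an EC20 of dopamine (50 nM final) for 90 min at 37 deg C. Luminescence was read 1 h after detection reagent, with 57 uM dopamine as the EC100 control.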
Sfp inh – blocks B. subtilis Sfp PPTase activity; Potency, µM, inactives show max response, negative = inhibition, most hits filed as inhibitors; Biochemical Sfp PPTase activity, qHTS; 310,000 tested, 3.5% active; Q9F4F7; active = well fitted inhibition curve with a large enough effect; inconclusive = small, poorly fitted or top-dose-only effect, or another doubt; inactive = no such curve, though single readings can be large or run the other way;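 also: the enzyme is Sfp with the accession as filed and its product quenches rhodamine fluorescence; potency is read from the fitted curve at half-maximal effect; 0% = enzyme reaction without inhibitor and -100% = no enzyme wells; top concentration of the series not given in the record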
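Compounds were incubated with enzyme (final 15 nM) for 15 min at room temperature before substrate addition started the reaction. Fluorescence at 525 nm excitation, 598 nm emission was recorded immediately and after 30 minutes.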
D2 agonist – activates the human D2 dopamine receptor | P14416 | 360,000 tested, 0.084% active | DiscoveRx PathHunter D2 beta-arrestin, luminescence, 90 min; 100% = 57 uM dopamine signal | activation, % (concentration not given with the values); in the data active = activation above about 40%; inconclusive = about 15% to 40%; inactive = below about 15%; also: compound concentration not given in the record; the text of the record calls up to 30% inactive
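DiscoveRx PathHunter D2 beta-arrestin cells (2,100/well) attached overnight, then compound-stimulated 90 min at 37 C in HBSS/10 mM HEPES/0.1% Tween-20 buffer; beta-galactosidase complementation read by luminescence after 1 h at ambient temperature. Dopamine 57 uM final (EC100) as control.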
PINK1 expr mod – changes PINK1 expression. 410,000 tested, 0.2% active. Potency, µM (titrated, usually from 76.6 µM), for inactives: at the top dose activation (PINK1 increase), usual class: activators. AID 624263. PINK1 immunofluorescence, high-content cytometry, 24 h; active = well fitted activation curve with a large enough effect; inconclusive = small, poorly fitted or top-dose-only effect; inactive = flat fitted curve, though single readings scatter; cell line not stated here;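 also: potency is read from the fitted curve at half-maximal effect; % of control where 0% means no effect; nearly all actives have a fitted effect of over 65% in size; a mitochondrial uncoupler was the plate control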
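Decision-based qHTS: stable cells, 24 h exposure to five compound concentrations, CCCP as control. Fixed cells stained for PINK1 plus nuclear, mitochondrial and cell markers, cytometer read.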
TRPV1 PAM – human TRPV1 potentiation. Q8NER1. TRPV1-expressing cells, Fluo-8 calcium influx, capsaicin EC20 potentiation; host cell line not named in the record; control for the full effect not named in the record. potentiation, % at 8.33 µM. 320,000 tested, 0.02% active; active means potentiation above 80%; inconclusive means 30% to 80%; inactive means below 30%; also: 0% is about no effect
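TRPV1-expressing cells were cultured overnight at 35.5C and loaded with Fluo-8 calcium dye for 40 to 90 min at room temperature. After a 10 s baseline, compound was added and calcium influx was read kinetically for 3 min (ex 480/em 520 nm).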
Six1-Eya2 inh – Six1/Eya2 interaction inhibition; Q15475+O00167; AlphaScreen GST-Six1/His-Eya2 binding, biochemical; hits give low values; control for the full effect not named in the record; activity change, % (test concentration not listed); 360,000 tested, 0.56% active; in the data active = activity change below about -65%; inconclusive = about -30% to -65%; inactive = above about -30%; also: % is scaled to controls: 0 for no effect and ±100 for the full control effect; compound concentration not given in the record
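AlphaScreen luminescence read after one hour at 37 °C in darkness. Pin-transferred compounds met GST-Six1 and His-Eya2 protein (5X stock 250 nM/500 nM) plus glutathione donor and Ni-chelate acceptor beads (5X, 50 ug/mL).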
CtBP-E1A inh – blocks the CtBP interaction with E1A; AID 651724; activity change, % (concentration not given with the values); 340,000 tested, 0.49% active; AlphaScreen GST-E1A/His-CtBP binding, 1536-well; hits give low values; control for the full effect not named in the record; in the data active means activity change below about -65%; inconclusive means about -30% to -65%; inactive means above about -30%; also: % is scaled to controls: 0 for no effect and ±100 for the full control effect
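In 5 uL wells, 23 nL compound meets equimolar GST-E1A and His-CtBP (5X stock 125 nM each) for 2 h, 37 °C. Beads (5X, 50 ug/mL) then 1 h, 37 °C, dark.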
Numbers without * were called inactive; ? = inconclusive; · = not tested or not shown; & = joins results of further samples; [ ] = remark or other dose.

Sample of the layout (3 entries):
SMILES	D2 potentiator	Sfp inh	D2 agonist	PINK1 expr mod	TRPV1 PAM	Six1-Eya2 inh	CtBP-E1A inh
Cc1cccc(CNC(=O)C(C)n2nc(C)c3c(C)n(-c4ccccc4)nc3c2=O)c1 (stereo not drawn)	-18.1	10.2%	-6.8	-0.8%	4.5	0.1	-2.4
CN1C2C=C(N(CCc3ccccc3)C(=O)c3ccc(Cl)cc3)CC1CC2 (stereo not drawn)	-21.2	5.6%	-3.5	-0.6%	-8.0	12.9	-3.5
CCN(CC(=O)NC1CCS(=O)(=O)C1)c1ccc([N+](=O)[O-])cc1C#N (stereo not drawn)	-2.0	·	-3.5	0.2%	11.3	-3.1	-15.9

Main list, from the first entry:
SMILES	D2 potentiator	Sfp inh	D2 agonist	PINK1 expr mod	TRPV1 PAM	Six1-Eya2 inh	CtBP-E1A inh
Cc1cccc(CNC(=O)C(C)n2nc(C)c3c(C)n(-c4ccccc4)nc3c2=O)c1 (stereo not drawn)	-18.1	10.2%	-6.8	-0.8%	4.5	0.1	-2.4
CN1C2C=C(N(CCc3ccccc3)C(=O)c3ccc(Cl)cc3)CC1CC2 (stereo not drawn)	-21.2	5.6%	-3.5	-0.6%	-8.0	12.9	-3.5
CCN(CC(=O)NC1CCS(=O)(=O)C1)c1ccc([N+](=O)[O-])cc1C#N (stereo not drawn)	-2.0	·	-3.5	0.2%	11.3	-3.1	-15.9
Cc1ccc(S(=O)(=O)N(C)c2ccc(C(=O)O)cc2)cc1	-18.9	3.7%	0.5	-0.6%	14.0	-3.3	-7.0
Cc1cc(C(=O)Nc2cccc3ncccc23)no1	-3.7	19.8%	-3.6	-1.6%	-16.6	-7.0	-3.8
Cc1ccc(Sc2ccc(NC(=O)c3ccc(S(C)(=O)=O)cc3Cl)cc2)cc1	-11.2	2.6%	0.2	?	-12.9	2.2	0.3
Cc1ccc(NC(=O)CN(C)C(=O)C(c2ccccc2)c2ccccc2)cc1	-26.6	·	-4.3	0.7%	-6.6	-4.1	4.1
CC(=O)Oc1ccc2ccccc2c1C(NC(=O)Cc1ccccc1)c1ccc(Cl)cc1 (stereo not drawn)	-9.3	9.5%	-4.8	14.1µM*	-24.8	-5.8	-0.9
Cc1cccnc1NC(=O)C1CCN(S(=O)(=O)c2c(C)noc2/C=C/c2ccco2)CC1	-13.0	11.4%	0.0	0.2%	3.8	3.9	-0.6
Cc1ccc([C@H]2C(C(=O)O)=CC[C@@H](c3ccc(C)cc3)N2S(=O)(=O)c2ccc(C)cc2)cc1	-7.6	·	-2.7	1.4%	·	-9.4	-4.2
OCCNc1ncnc2c1nnn2Cc1ccccc1Cl	-3.1	·	-1.7	1.3%	·	10.0	-16.2
COc1ccc(C(=O)C2CCCN(S(=O)(=O)c3ccc(C(C)=O)cc3)C2)c(C)c1 (stereo not drawn)	1.4	6.5%	4.8	-0.3%	7.5	-0.3	-5.6
CCOC(=O)Cc1csc(NC(=O)c2ccc(Br)cc2)n1	2.0	16.2%	7.6	2.3%	-22.3	-0.8	-3.6
Cc1cc(NC(=O)CSc2ccccn2)no1	-8.3	8.0%	-0.8	-1.0%	0.2	5.0	·
CCOC(=O)c1cn[nH]c1NC(=S)Nc1ccccc1	2.9	-5.6%	11.4	5.0%	15.6	-1.5	0.2
Cc1[nH]n(-c2ccccc2)c(=O)c1C=Nc1ccc(S(=O)(=O)NC(N)=O)cc1	-14.3	17.1%	-4.1	1.9%	0.3	-8.3	·
COc1ccc(S(=O)(=O)NC(CC(=O)NCc2ccco2)c2ccco2)cc1 (stereo not drawn)	4.5	18.5%	-1.3	2.1%	-5.8	1.6	-0.2
Cc1cccc(/C=C/c2onc(C)c2S(=O)(=O)N2CCC(C(=O)NC(C)(C)C)CC2)c1	-1.1	0.8%	2.0	2.8%	-17.3	4.6	1.9
COc1ccc(CNc2ccccc2)cc1Br	-1.5	-11.4%	-2.4	·	?	-1.6	9.8
CCc1cc(C(=O)NNC(=S)Nc2cccc(C)c2)cs1	-17.6	8.6%	-9.1	-0.8%	15.2	-7.0	-2.1
CCOC(=O)c1ccc(NC(=O)c2nc[nH]c2C(=O)NCC(=O)OC(C)(C)C)cc1	-0.9	22.9%	4.3	-0.2%	10.3	-2.8	4.7
COC(=O)CCC(=O)OC1(C)C(=O)C2=CN(CCc3c[nH]c4ccccc34)C(c3ccc(OC)cc3)=CC2=C(Br)C1=O (stereo not drawn)	8.9	8.9%	4.8	4.3%	·	-21.9	-13.5
COC(=O)c1ccc(C2C(Oc3ccc(OC)cc3)C(=O)N2CCc2ccc(F)cc2)cc1 (stereo not drawn)	-10.8	28.8%	-2.6	17.6%	-17.5	4.8	5.1
CC[C@H](C)[C@H]1CNC(=S)N1CC1CCN(CCCCc2ccccc2)CC1	-19.0	·	-1.0	1.2%	·	-1.4	-0.5
Cc1ccc(-n2c(=S)[nH]c3sc4c(c3c2=O)CCC4)cc1	-0.7	-29.1%	-5.5	-0.7%	-10.3	-0.4	0.8
COc1cc2cc(C(C)(C)O)oc(=O)c2cc1OC	-3.2	·	-3.4	0.2%	3.5	1.0	-3.2
Cc1ccc(NC(=O)CCCNC(=O)c2ccc(Cl)cc2)c(O)c1	-3.0	11.1%	0.9	-1.4%	-11.3	7.5	5.0
CC(C)(C)c1ccc(C(=O)NNC(=O)CCc2ccccc2)cc1	-8.0	·	0.9	2.4%	·	-0.5	7.0
CCn1c(CCCOc2ccc(Cl)cc2Cl)nnc1SCC(=O)Nc1cccc(F)c1	6.7	14.6%	-1.6	0.0%[38.3 µM]	-0.8	-0.8	-0.5
Cc1ccc(Oc2ccc(Cl)cc2N)cc1	-5.7	7.2%	2.4	3.7%	0.4	4.8	·
COC(=O)NNC(=O)COc1cc(C)c(Br)cc1C(C)C	-32.0	2.6%	-3.3	1.2%	-5.0	14.8	0.0
CN1C2CCC1/C(=C\c1ccc(F)cc1)C(=O)/C2=C/c1ccc(F)cc1	-12.1	7.0%	-9.6	6.7%	-10.5	8.9	-5.4
O=C(NCc1ccc2c(c1)OCO2)c1ccc(CS(=O)(=O)Cc2cccc(Cl)c2)o1	-5.9	10.6%	1.4	0.3%	-2.6	0.2	12.3
C[C@H]1CN([C@@H](C)CO)C(=O)CCCn2nncc2CO[C@@H]1CN(C)Cc1ccc(C(F)(F)F)cc1	-0.3	·	-8.3	0.7%	·	2.4	-23.1
O=C(O)c1cccc2c1-c1ccc(Cl)cc1C2	-9.3	·	-7.5	-6.6%	·	-1.8	-1.4
O=C(COC(=O)CSc1ccc([N+](=O)[O-])cc1)NCC1CCCO1 (stereo not drawn)	-5.5	?	4.4	0.1%	-21.3	11.2	5.0
CCOc1ccc(/C=N/NC(=O)Cn2ccnc2C)cc1	-2.9	17.2%	-2.2	-1.1%	-10.4	-14.0	-2.2
Nc1nc2cc(Cl)ccc2n1N	-4.9	·	-3.6	1.9%	·	-2.6	4.5
CCOC(=O)c1cc(CC)sc1/N=C/c1c(O)ccc2ccccc12	12.3	-19.2%	-13.5	-1.1%	0.4	-13.9	-3.7
COc1ccccc1NC(=O)CSc1nc2ccccc2nc1N1CC(C)OC(C)C1 (stereo not drawn)	-1.1	-17.9%	-3.1	7.5%	-13.8	6.7	9.7
CC(=O)Nc1ccccc1NC(=O)c1ccc(C)cc1C	-11.8	13.2%	-2.7	0.1%	20.5	0.4	-2.0
CC[C@@H](C)CN1C(=O)N[C@@H](c2ccccc2)C(C(C)=O)=C1C	-3.1	0.6%	12.8	-0.5%	·	0.7	0.0
COC(=O)c1ccc(N2CCN(C(=O)c3ccccc3)CC2)c(NC(C)=O)c1	-5.5	21.0%	-1.1	2.9%	-10.3	4.7	0.4
O=C(Cc1ccc(Cl)c(Cl)c1)Nc1ccccc1N1CCOCC1	2.6	-2.9%	2.1	4.1%	14.4	-1.8	8.7
CCC(=O)Nc1ccc2nc(C3CC3)n(Cc3ccccc3)c(=O)c2c1	-3.7	11.2%	0.5	0.7%	-0.9	2.4	4.1
CC(=O)[C@H]1CC[C@H]2[C@@H]3CCC4=CC(=O)CC[C@]4(C)[C@H]3CC[C@]12C	3.5&-12.1	-14.7%&-13.3%&8.7%&10.6%	-4.4&-3.9	9.2%&0.8%	-15.2&-8.9&-0.9	-6.5&-11.3	5.0&-8.7
COC(=O)[C@@]1(Cc2ccc(F)cc2)[C@H]2c3cc(C(=O)N(C)C)n(Cc4ccsc4Br)c3C[C@H]2CN1C(=O)c1ccccc1	·	-13.2%	·	2.9%	·	-26.1	-0.1
COc1cc(CNC(=O)Nc2nc(C(N)CCc3ccccc3)cs2)cc(OC)c1OC (stereo not drawn)	-18.6	·	-4.7	4.7%	·	-22.8	?
O=c1[nH]c(N2CCOCC2)nc2ccccc12	-22.6	15.6%	-1.9	0.8%	10.9	13.8	·
CC(C)CNC(=O)CN(C1CCCCC1)S(C)(=O)=O	-13.2	18.8%	0.0	-1.3%[38.3 µM]	-11.1	4.0	3.7
COc1cc(NC(=O)c2ccc([N+](=O)[O-])o2)ccc1NC(=O)c1cccs1	4.4	18.4%	12.4	1.4%	-4.8	-3.8	2.3
CCCn1nc(C(=O)Nc2ccc(-n3cnnn3)cc2)c2ccccc2c1=O	-3.9	·	1.3	-0.8%	10.2	-6.2	-5.0
C[C@H](NC(=O)OC(C)(C)C)C(=O)NCC1CCC(C(=O)O)CC1 (stereo partly drawn)	13.6	12.4%	-0.1	2.5%	-1.4	11.0	4.5
COc1ccccc1C(CNC(=O)c1cccc(NS(=O)(=O)c2ccc(C)c(F)c2)c1)N(C)C (stereo not drawn)	-37.2	·	1.0	0.3%	-3.7	0.0	2.3
CCOc1ccc(NC(=O)CCn2c(=S)oc3ccccc32)cc1	-6.6	2.9%	-3.2	4.6%	-16.1	2.9	15.4
Cc1ccccc1N(CC(=O)NCc1ccco1)C(=O)CNS(=O)(=O)c1ccc(F)cc1	-6.0	-26.2%	0.3	2.2%	10.3	-1.6	-8.2
COc1cc(C=O)ccc1OCCCCOc1ccccc1[N+](=O)[O-]	-4.6	-15.8%	1.5	0.6%	23.1	-8.6	-2.2
O=C(COC(=O)CCc1c[nH]c2ccccc12)NCc1ccc2c(c1)OCO2	-1.4	-10.8%	-4.7	0.8%	2.4	1.1	3.3
Cc1c(Cl)ccc2c1NC(=O)[C@]21N[C@@H](Cc2ccccc2)[C@H]2C(=O)N(c3ccc(F)cc3)C(=O)[C@H]21	-25.1	13.5%	-2.8	-1.4%	-7.4	-4.8	-5.0

Screens (PubChem)
